Compound activity (PubChem BioAssay)
Menin MLL FP FL: menin-MLL binding inhibition, fluorescein peptide. Fluorescence polarization, fluorescein-MLL peptide displacement from menin. FP activity change, % at 61.4 µM. 290,000 tested, under 10 active. AID 1766; inconclusive = falling polarisation curve, or a change in total fluorescence; inactive = total fluorescence flat and polarisation flat or rising; no compound was filed as active; the % refers to the polarisation; negative = inhibition;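 note: % of control where 0% means no effect; inhibitors lower the polarisation; unlabelled MLL peptide was the positive control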
Sfp inh: Sfp phosphopantetheinyl transferase inhibition; AID 1490; Q9F4F7; Biochemical Sfp PPTase activity, qHTS; actives 3.5% (n = 310,000); Potency, µM, for the others: max response, negative = inhibition, most hits filed as inhibitors; active = well fitted inhibition curve with a large enough effect; inconclusive = small, poorly fitted or top-dose-only effect, or another doubt; inactive = no such curve, though single readings can be large or run the other way;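 note: the enzyme is Sfp with the accession as filed and its product quenches rhodamine fluorescence; potency is the fitted concentration of half-maximal effect; 0% = enzyme reaction without inhibitor and -100% = no enzyme wells; top concentration of the series not given in the record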
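Buffer: 50 mM Hepes-Na pH 7.6, 10 mM MgCl2, 0.01% Nonidet P-40, 0.01% BSA. Enzyme 15 nM, pre-exposed to compound 15 min; substrates then added and fluorescence change tracked over 30 min.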
D2 PAM: human D2 receptor positive allosteric modulation; potentiation, % (test concentration not listed); AID 624464; DiscoveRx D2 beta-arrestin cells, luminescence, 90 min; 100% = 57 uM dopamine signal; actives 0.23% (n = 360,000); active = potentiation of 50% or more; inconclusive = 30% to 50%; inactive = 30% or less;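 note: compound concentration not given in the record; tested on top of an EC20 dose of dopamine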
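PathHunter D2 cells, attached overnight at 37 deg C, received compound in DMSO plus dopamine at EC20 (50 nM final) for 90 min at 37 deg C. Beta-arrestin recruitment was read as luminescence after 1 h with detection reagent at ambient temperature.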
ClpP mod: qHTS Assay for Activators of ClpP. ATP-dependent Clp protease proteolytic subunit (Bacillus subtilis (strain 168)), P80244. purified B. subtilis ClpP, FRET peptide cleavage, 20 min. Potency, µM (doses to about 57.5 µM), for inactives: top-dose activity change, negative = active. actives 1.9% (n = 340,000). AID 651965, 2013; active = well fitted falling curve with a large enough effect; inconclusive = small, poorly fitted or top-dose-only effect; inactive = no such curve, though single readings can be large or run the other way; note: potency is the fitted concentration of half-maximal effect; the source files actives as falling curves though it sought activators and does not explain the sign; nearly all actives have a fitted effect of over 65% in size; many hits overshoot -100%
Target sequence (P80244 whole entry, looked up): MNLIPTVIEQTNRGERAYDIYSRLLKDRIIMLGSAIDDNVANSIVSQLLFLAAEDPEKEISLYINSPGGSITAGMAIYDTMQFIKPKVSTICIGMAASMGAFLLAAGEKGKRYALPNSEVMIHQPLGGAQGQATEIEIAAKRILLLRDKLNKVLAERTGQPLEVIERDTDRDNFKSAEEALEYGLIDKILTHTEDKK
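Purified B. subtilis ClpP, 10 microg/mL final in Tris/HCl pH8 with KCl, BSA, glycerol and Tween-20, cleaved an Abz/nitrotyrosine-quenched decapeptide. Fluorescence (ex 320, em 430) was read at 0 and 20 min at room temperature. Delta was normalized to 5.8 microM ADEP and DMSO/no-enzyme controls.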
TRPV1 PAM: enhances activation of the human vanilloid receptor TRPV1. potentiation, % at 8.33 µM. TRPV1-expressing cells, Fluo-8 calcium influx, capsaicin EC20 potentiation; host cell line not named in the record; control for the full effect not named in the record. Q8NER1. AID 540277. actives 0.02% (n = 320,000); active means potentiation above 80%; inconclusive means 30% to 80%; inactive means below 30%; note: 0% is about no effect
Target sequence (Q8NER1 whole entry, looked up): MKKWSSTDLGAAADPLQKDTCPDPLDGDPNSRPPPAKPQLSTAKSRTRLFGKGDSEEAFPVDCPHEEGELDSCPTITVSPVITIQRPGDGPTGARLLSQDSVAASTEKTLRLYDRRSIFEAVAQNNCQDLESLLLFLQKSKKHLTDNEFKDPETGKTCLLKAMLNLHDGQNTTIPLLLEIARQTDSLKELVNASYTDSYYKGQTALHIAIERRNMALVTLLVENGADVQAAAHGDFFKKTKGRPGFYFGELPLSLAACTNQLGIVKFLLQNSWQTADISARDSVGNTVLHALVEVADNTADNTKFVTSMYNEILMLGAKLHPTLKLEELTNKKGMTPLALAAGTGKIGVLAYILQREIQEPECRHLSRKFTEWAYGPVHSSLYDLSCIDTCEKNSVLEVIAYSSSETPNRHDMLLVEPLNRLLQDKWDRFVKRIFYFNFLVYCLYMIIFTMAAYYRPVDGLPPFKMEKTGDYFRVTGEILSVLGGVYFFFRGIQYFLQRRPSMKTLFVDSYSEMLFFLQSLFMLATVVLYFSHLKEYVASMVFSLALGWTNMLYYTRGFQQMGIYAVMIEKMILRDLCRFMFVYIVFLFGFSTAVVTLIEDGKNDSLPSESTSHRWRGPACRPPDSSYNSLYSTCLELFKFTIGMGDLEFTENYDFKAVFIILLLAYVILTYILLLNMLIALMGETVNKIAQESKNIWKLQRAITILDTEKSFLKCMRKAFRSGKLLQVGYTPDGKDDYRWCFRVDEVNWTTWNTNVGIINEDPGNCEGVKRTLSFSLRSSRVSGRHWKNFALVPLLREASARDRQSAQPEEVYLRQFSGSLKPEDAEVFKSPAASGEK
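Fluo-8 calcium influx in TRPV1-expressing cells, kinetic read (ex 480/em 520 nm). Compound added and read 3 min for agonist activity, followed by capsaicin at EC20 final and 2 min further read for enhancement.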
gsp antag: antagonizes gsp, the McCune-Albright syndrome mutation | gsp-mutant cells, cAMP HTRF, 30 min; control for the full effect not named in the record | Potency, µM (series often up to 76.9 µM), inactives show at the highest dose activity change, negative = inhibition, most hits filed as inhibitors | actives 0.4% (n = 340,000) | AID 624288; active = falling curve of any shape with a large fitted effect; inconclusive = falling curve, mostly with a smaller effect; inactive = flat or rising curve; cell line not stated here;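 note: intracellular cAMP measured with PDE inhibitor Ro 20-1724 present during compound exposure; potency is the fitted concentration of half-maximal effect; % is set by controls: 0 for no effect and ±100 for the full control effect; nearly all actives have a fitted effect of over 65% in size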
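Measurement of cellular cAMP by homogeneous time-resolved fluorescence following a 30 min compound exposure at 37C. The PDE inhibitor […] was present throughout; the assay buffer was DPBS with 0.05% BSA and 0.005% Tween 20.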
gsp agonist: agonists of gsp mutant (McCune-Albright syndrome). Potency, µM (titrated, usually from 76.9 µM), without a hit: at the top dose activation (cAMP increase), usual class: activators. AID 624287. gsp mutant cells, cAMP HTRF, 30 min; control for the full effect not named in the record. actives 0.13% (n = 340,000); active = well fitted activation curve with a large enough effect; inconclusive = small, poorly fitted or top-dose-only effect, or another doubt; inactive = no such curve, though single readings can be large or run the other way; cell line not stated here;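 note: phosphodiesterase inhibitor Ro 20-1724 added with compounds to block cAMP breakdown; potency is the fitted concentration of half-maximal effect; nearly all actives have a fitted effect of over 60% in size; about a fifth of the inactives were tested at one dose only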
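Cells stably selected in G418 were plated at 2000/well, grown 16-24 hr, then given compounds in DMSO with the PDE inhibitor […] (300 uM solution added) for 30 min at 37C; cAMP was read by HTRF.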
An asterisk follows results filed as active; ? = inconclusive; . = no result given; [ ] = another dose, or the depositor's remark. Random draw from the library; any-hit rate near 5.1%.

SMILES | Menin MLL FP FL | Sfp inh | D2 PAM | ClpP mod | TRPV1 PAM | gsp antag | gsp agonist
COCCCNC(NC(=O)c1ccc(OC)cc1)C(Cl)(Cl)Cl (stereo not given) | -0.5 | 26% | -5 | 0.3% | 17 | 23% | 7%
Cc1ccc(-c2nc(NCC3CCCO3)sc2C)cc1 (stereo not given) | -0.2 | -8% | -5 | -1.4% | -22 | 7% | 14%
COCCNc1nnc(SCC(=O)Nc2nnc(-c3ccccc3)o2)s1 | . | . | -26 | -0.7% | 4 | -5% | 4%
COc1ccc(NC(=O)CCNC(=O)c2ccc([N+](=O)[O-])cc2)cc1S(=O)(=O)N1CCCCC1 | . | . | -12 | -2.4% | -9 | -5% | -11%
CCOc1ccc(NC(=O)c2ccco2)c([N+](=O)[O-])c1 | -1.5 | 7% | ? | 0.9% | -8 | 18% | -31%
NC(=O)C1CCCN(C(=O)c2cccc(S(=O)(=O)N(Cc3ccccc3)c3ccccc3)c2)C1 (stereo not given) | . | . | -14 | 2.2% | -4 | -7% | -27%
O=C(COC(=O)c1ccc(O)cc1)Nc1ccc2c(c1)OCO2 | . | . | 6 | -1.4% | . | -9% | 18%[15.4 µM]
CCOc1ncccc1C(=O)OCc1ccc([N+](=O)[O-])cc1 | -0.8 | 12% | -24 | . | -4 | . | 19%[15.4 µM]
O=C(CN1CCN(Cc2ccc3c(c2)OCO3)CC1)N1CCc2[nH]c3ccccc3c2C1 | 0.3 | 2% | . | . | -7 | . | .
CC1CCCN(S(=O)(=O)c2ccc(NC(=O)CN3C(=O)NC(C)(c4ccccc4)C3=O)cc2)C1 (stereo not given) | . | . | 14 | 1.1% | 0 | -2% | 7%
COc1cc2[nH]c(=O)n(Cc3ccc(C(=O)NCCCN4CCN(C)CC4)cc3)c(=O)c2cc1OC | -3.8 | 3% | -9 | 25µM* | -11 | 13% | ?
COc1ccc(NC(=O)COC(=O)c2ccc(N3CCCC3=O)cc2)cc1 | . | . | -2 | -1.7% | 3 | -5% | 7%
Cc1cc(-c2csc(N)n2)c(C)n1Cc1ccco1 | -0.5 | 50µM* | -12 | -3.1% | 2 | -4% | 17%
Cc1ccc(S(=O)(=O)N(C)CC(=O)N2CCc3ccccc32)cc1 | 2.6 | 6% | -3 | 0.6% | -4 | -16% | -12%
CCOC(=O)c1ccc(NC(=O)NCc2ccccn2)cc1 | . | -6% | -11 | -5.9% | -7 | -5% | 17%
CC(C)(C)C1(O)CC(C(F)(F)F)=NN1C(=O)CCCc1ccccc1 (stereo not given) | -1.9 | 12% | -2 | . | -13 | -6% | -1%
CCOC(=O)c1cnn(-c2nc(CC)nc3sc4c(c23)CCC4)c1N | 1.9 | 18% | 4 | -1.0% | 21 | 0% | -2%
COc1ccc(N2CCN(C(CNS(C)(=O)=O)c3ccco3)CC2)cc1 (stereo not given) | 2.4 | 3% | -2 | -9.8% | 17 | 10% | 24%
O=C(CSc1ccccc1F)NC(=O)NCc1ccco1 | -3.2 | 45µM* | -10 | -0.1% | 1 | 8% | -2%
O=C(N/N=C/c1cn[nH]c1-c1ccccc1)c1ccco1 | -5.5 | -3% | -4 | . | 12 | 8% | 34%
Cc1ccc(/C=C/C(=O)c2ccc(O)cc2)cc1 | -1.4 | 9% | -12 | . | 16 | -5% | ?
Cc1c(NC(=O)CCN2C(=O)c3ccccc3C2=O)c(=O)n(-c2ccccc2)n1C | -0.4 | 9% | -19 | -2.1% | -6 | -6% | 8%
COC(=O)c1scc(C)c1NC(=O)/C=C/C(=O)O | 1.8 | 13µM* | 2 | -0.1% | 7 | 8% | -6%[15.4 µM]
CCCCNC(=S)NNC(=O)c1cc(-c2ccncc2)nc2ccccc12 | . | 11% | -61 | 3.0% | 13 | ? | -33%[inhibitor]
CCn1cc(C(=O)NCCCN2CC(C)CC(C)C2)c(=O)c2cc(S(=O)(=O)N(C)C3CCCCC3)ccc21 (stereo not given) | -0.5 | 0% | -19 | -4.9% | -7 | 8% | -33%

New compounds follow.
SMILES | Menin MLL FP FL | Sfp inh | D2 PAM | ClpP mod | TRPV1 PAM | gsp antag | gsp agonist
CC(C)c1nnc(NC(=O)CCC(=O)N2CCN(C3CCCCC3)CC2)s1 | 3.3 | 2% | -10 | -0.8% | 5 | 4% | 15%
CCCCN1CC(=O)N2[C@H](c3ccc(Cl)cc3)[C@@H]3C(=O)N(CC)C(=O)[C@@H]3[C@]2(Cc2ccccc2)C1=O | 2.4 | 9% | -5 | 1.2% | -17 | -5% | ?
O=C(N/N=C/c1cccnc1)c1cc(-c2ccccc2)nc2ccccc12 | -5.8 | -3% | -6 | . | 8 | -10% | 26%
COc1ccc(OCC(=O)Nc2cccc(C(C)=O)c2)cc1 | -0.9 | -1% | -23 | -1.4% | 22 | 1% | -4%
NC(=O)CCCn1c(C(=O)c2cc(Cl)c(N)c(Cl)c2)c2ccc(C(F)(F)F)cc2[n+]1[O-] | . | . | 0 | 0.6% | -9 | ? | -18%
COc1ccc(NC(=O)c2cc(C)on2)cc1OC | 3.7 | 15% | -13 | 0.3% | ? | 7% | -5%
COC(=O)c1ccc(NC(=O)Cc2ccc(C)cc2)cc1 | -2.0 | 2% | -8 | 1.0% | -16 | -1% | -30%
Cc1ccccc1NC(=O)COC(=O)C1C2CC3OC(=O)C1C3C2 (stereo not given) | . | 19% | -5 | . | 4 | 11% | 17%[15.4 µM]
O=C(CC1SC(=O)NC1=O)Oc1ccc(/C=N/NC(=O)c2ccccc2O)cc1 (stereo not given) | 5.3 | 3% | -14 | -2.2% | -15 | -6% | -6%
Cc1cc(C(=O)COC(=O)c2ccc(F)cc2)c(C)n1C | . | . | 2 | 0.6% | . | 9% | -1%
CN1C(=O)OC(C)(CCc2ccccc2)C1(C)O (stereo not given) | 4.8 | 12% | -10 | -0.4% | 8 | -16% | -16%
COc1cc(NC(=O)c2ccccc2Cl)ccc1NC(=O)c1ccco1 | 0.6 | 6% | -8 | 0.7% | 19 | -10% | 4%
COc1ccc(/C=C/C(=O)NCCCn2ccnc2)cc1 | 3.1 | 1% | -2 | 1.2% | 7 | 3% | 15%
COc1ccc(NC(=O)CN(C)C(C)C(=O)N2CCCCC2)cc1 (stereo not given) | 0.4 | ? | -11 | 0.5% | 7 | 2% | -24%
CCn1c(SCC(=O)NCc2ccco2)nnc1C(C)C | 3.2 | -11% | -8 | 0.4% | -15 | 14% | -12%
CCn1c(SCC(=O)NCc2ccco2)nc2ccccc2c1=O | -2.4 | -21% | -10 | -0.3% | -1 | -23% | 20%
CC1Cc2nc(SCC(=O)NCc3ccccc3)n(Cc3ccccc3)c(=O)c2S1 (stereo not given) | 2.9 | 13% | -2 | -0.2% | -6 | ? | 1%
CCS(=O)(=O)c1ccc(O)c(NC(=O)COc2ccc(Cl)cc2)c1 | -2.0 | 13% | -2 | . | 3 | 0% | -3%[15.4 µM]
COc1ccc(CN(C)CC(=O)Nc2ccccc2C(=O)NC2CC2)cc1OC | . | . | -11 | 2.1% | 17 | 3% | -4%
Cc1ccc(NC(=O)c2nc[nH]c2C(=O)Nc2ccc(C)cc2)cc1 | 2.0 | 4% | -3 | 1.5% | -5 | -5% | 26%
Cc1ccc(NC(=O)CN(C)C(=O)c2cccc(S(=O)(=O)NCc3ccco3)c2)cc1 | . | . | -5 | 0.4% | -16 | -4% | -1%
O=S(=O)(Nc1ccc2ccccc2c1)N1CCCCC1 | . | . | -4 | . | . | -9% | -35%[inhibitor]
C=CCOc1ccc(C=CC(=O)c2c(O)c(OC)c(OC)c(OC)c2OC)cc1 | . | . | -9 | -0.7% | . | -14% | -44%[inhibitor]
CCCOc1ccc(C(=O)c2ccccc2C(=O)O)cc1OCCC | 2.4 | 11% | 5 | -0.2% | -5 | ? | -21%
COc1nccnc1NS(=O)(=O)c1ccc(NCc2cc(Br)ccc2O)cc1 | 0.9 | 19% | 11 | . | 2 | -9% | -7%[15.4 µM]

Additional results:
SMILES | Menin MLL FP FL | Sfp inh | D2 PAM | ClpP mod | TRPV1 PAM | gsp antag | gsp agonist
COC(=O)CCC(=O)Nc1ccc(Br)cc1 | -2.7 | -15% | -26 | -11% | -1 | -9%[15.4 µM] | -24%
CCc1noc(C)c1C(=O)NNC(=O)c1ccccc1 | . | . | 0 | -2.1% | 21 | 12% | -70%[inhibitor]
CCOc1ccc(S(=O)(=O)Nc2nc3ccccc3nc2Cl)cc1 | 6.8 | 15% | -3 | -14% | 4 | -4% | ?
CC(C)(C)[C@H]1C=C(C(=O)N2CCOCC2)O[C@@H](OCCCCO)C1 | -3.1 | 11% | -10 | -2.6% | -1 | -8% | .
O=C(Nc1ccccc1C(=O)N1CCN(c2cccc(Cl)c2)CC1)C1=CSCCO1 | -3.0 | 8% | -5 | . | 0 | -15% | -22%
O=C(Nc1ccccc1)c1ccc2nsnc2c1 | 5.5 | 7% | -12 | 1.2% | . | 4% | 0%
O=C(NC(=S)NC1CCN(Cc2ccccc2)CC1)c1ccc(F)cc1 | 1.7 | 5% | -20 | -0.5% | -13 | -13% | -24%
CCCCC(CC)COC(=O)c1ccc(N(C)C)cc1 (stereo not given) | 0.2 | -1% | -7 | ? | -7 | -3% | .
Cc1cc(C)n(-c2ccc(S(=O)(=O)N3CCOCC3)cc2[N+](=O)[O-])n1 | -0.4 | 13% | -5 | . | -16 | 6% | 0%[15.4 µM]
Cc1ccc(C(=O)NC(C)(COc2nonc2C)COc2nonc2C)cc1 | -1.9 | -5% | 5 | -0.2% | -1 | -3% | 13%
CCCCOCCCNC(=S)Nc1ccc(S(=O)(=O)N2CCOCC2)cc1 | 4.3 | 12% | -18 | -3.8% | -9 | 0% | -40%[inhibitor]
CCOc1ccc(NC(c2ccccn2)c2oc(CO)cc(=O)c2O)cc1 (stereo not given) | -24 | 3.2µM* | -1 | -0.5% | 0 | 0% | -29%
O=C(CNS(=O)(=O)c1ccc2ccccc2c1)OCC(=O)c1ccc(Br)s1 | ? | 5% | -24 | -0.9% | 5 | 14% | 8.9µM*
